# Env fusion inh: inhibitors of HIV Env-mediated cell fusion; HeLa-JRFL Env/CEM21 cell fusion, luciferase; hit rate 1.1% among 360,000; inhibition, % at 12.3 µM; AID 651610;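 active = mean replicate inhibition score of at least 50 and every replicate individually at or above 50; inconclusive = only one of the two criteria met; inactive = mean below 50 and not all replicates reaching 50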;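 note: 0% = plate neutral controls and 100% = maraviroc near 300 nM; one replicate is shown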
# Active calls of the source: *; ? = inconclusive; [ ] = another dose, or the depositor's remark. A portion of the library; the hit share may differ from the screen's.
SMILES,Env fusion inh
COc1ccc(S(=O)(=O)N(C)C[C@H]2Oc3c(cccc3N(C)C)C(=O)N([C@@H](C)CO)C[C@@H]2C)cc1,-3[16.7 µM]
O=C(N[C@H]1CC[C@H](CCNS(=O)(=O)c2ccc(Cl)cc2)O[C@H]1CO)c1ccccn1,33[16.7 µM]
COc1ccc(OC(=O)N(C)C[C@@H]2OCc3ccccc3-c3ccccc3C(=O)N([C@H](C)CO)C[C@@H]2C)cc1,-72[16.7 µM]
CCCN(C)C[C@@H]1Oc2cc(C#Cc3cccc(OC)c3)ccc2S(=O)(=O)N([C@@H](C)CO)C[C@@H]1C,8[16.7 µM]
O=C(C[C@H]1CC[C@@H](NC(=O)CC2CC2)[C@@H](CO)O1)NCc1ccc(Cl)cc1,-12[16.7 µM]
CNC[C@@H]1OCCCC[C@H](C)Oc2ccc(NC(=O)Nc3ccccc3)cc2C(=O)N([C@H](C)CO)C[C@@H]1C,15[16.7 µM]
COc1ccc(C(=O)C(=O)N2CCN(C(=O)c3ccccc3C(F)(F)F)CC2)cc1OC,-3
Cc1ccc(NC(=O)[C@@H](Cc2ccccc2)NC(=O)[C@H]2O[C@@H](n3ccc(=O)[nH]c3=O)[C@H](O)[C@@H]2O)cc1C,10
COc1ccc(OC)c(CN2CCN(C(=O)c3cc(S(=O)(=O)N4CCOCC4)ccc3C)CC2)c1,9
C[C@@H]1CN([C@H](C)CO)C(=O)c2ccccc2-c2ccccc2CO[C@@H]1CN(C)S(C)(=O)=O,-8[16.7 µM]
COc1ccccc1C#Cc1ccc2c(c1)[C@@H]1NCC[C@@H]1[C@H](CO)N2,-39[16.7 µM]
Cc1cc(C(=O)Nc2ccc3c(c2)C(=O)N(C)[C@H]2CC[C@@H](CC(=O)NC4CCCC4)O[C@@H]2CO3)no1,0[16.7 µM]
O=C(NCc1ccccc1)[C@@H]1CCCN1C(=O)[C@H]1CCCN1C(=O)c1ccc(F)c(F)c1,8
C[C@@H]1CN([C@@H](C)CO)C(=O)Cc2cc(NC(=O)Nc3ccc(C(F)(F)F)cc3)ccc2O[C@@H]1CN(C)S(=O)(=O)c1ccc(F)cc1,-59[16.7 µM]
COc1cccc(CN(C)C[C@@H]2OCc3ccccc3-c3ccccc3C(=O)N([C@@H](C)CO)C[C@@H]2C)c1,40[16.7 µM]
CO[C@@H]1CN(C)C(=O)c2cc(NC(=O)Nc3cccc(F)c3)ccc2OC[C@H](C)N(C(=O)Nc2c(C)noc2C)C[C@H]1C,7[16.7 µM]
Cc1ccc(S(=O)(=O)N[C@H]2CC[C@H](CC(=O)N3CCc4ccccc4C3)O[C@@H]2CO)cc1,16[16.7 µM]
COc1ccc(S(=O)(=O)N(C)C[C@H]2OCCCC[C@H](C)Oc3ccc(NS(=O)(=O)c4cn(C)cn4)cc3C(=O)N([C@H](C)CO)C[C@@H]2C)cc1,19[16.7 µM]
COc1cccc(S(=O)(=O)N2CCC3(CC2)CN(C(=O)Nc2cccc(F)c2)[C@H](CO)c2[nH]c4cc(OC)ccc4c23)c1,22[16.7 µM]
CN(C)c1ccc2c(c1)[C@@H]1C[C@@H](CC(=O)NCC3CC3)O[C@@H](CO)[C@@H]1O2,17[16.7 µM]
COC(=O)/C=C1\OC(C)c2ccccc21 (configuration not stated),4
O=C(N[C@@H]1C=C[C@H](CC(=O)N2CCc3ccccc3C2)O[C@H]1CO)C1CC1,-6[16.7 µM]
CC(C)NC(=O)N(C)C[C@H]1OCCCC[C@H](C)Oc2ccc(NC(=O)c3ccccc3)cc2C(=O)N([C@H](C)CO)C[C@H]1C,-18[16.7 µM]
Cc1ccccc1S(=O)(=O)N1C[C@H](O)COC[C@H]2O[C@H](CC(=O)O)CC[C@@H]21,-32[16.7 µM]

# Ordered by heavy-atom count (highest first): 11 of the compounds above.
SMILES,Env fusion inh
COc1ccc(S(=O)(=O)N(C)C[C@H]2OCCCC[C@H](C)Oc3ccc(NS(=O)(=O)c4cn(C)cn4)cc3C(=O)N([C@H](C)CO)C[C@@H]2C)cc1,19[16.7 µM]
C[C@@H]1CN([C@@H](C)CO)C(=O)Cc2cc(NC(=O)Nc3ccc(C(F)(F)F)cc3)ccc2O[C@@H]1CN(C)S(=O)(=O)c1ccc(F)cc1,-59[16.7 µM]
CO[C@@H]1CN(C)C(=O)c2cc(NC(=O)Nc3cccc(F)c3)ccc2OC[C@H](C)N(C(=O)Nc2c(C)noc2C)C[C@H]1C,7[16.7 µM]
COc1cccc(CN(C)C[C@@H]2OCc3ccccc3-c3ccccc3C(=O)N([C@@H](C)CO)C[C@@H]2C)c1,40[16.7 µM]
Cc1cc(C(=O)Nc2ccc3c(c2)C(=O)N(C)[C@H]2CC[C@@H](CC(=O)NC4CCCC4)O[C@@H]2CO3)no1,0[16.7 µM]
COc1ccc(OC)c(CN2CCN(C(=O)c3cc(S(=O)(=O)N4CCOCC4)ccc3C)CC2)c1,9
O=C(NCc1ccccc1)[C@@H]1CCCN1C(=O)[C@H]1CCCN1C(=O)c1ccc(F)c(F)c1,8
O=C(N[C@@H]1C=C[C@H](CC(=O)N2CCc3ccccc3C2)O[C@H]1CO)C1CC1,-6[16.7 µM]
CN(C)c1ccc2c(c1)[C@@H]1C[C@@H](CC(=O)NCC3CC3)O[C@@H](CO)[C@@H]1O2,17[16.7 µM]
COc1ccccc1C#Cc1ccc2c(c1)[C@@H]1NCC[C@@H]1[C@H](CO)N2,-39[16.7 µM]
COC(=O)/C=C1\OC(C)c2ccccc21 (configuration not stated),4

# (listing goes on)
SMILES,Env fusion inh
COC(=O)c1cc2c(c3c4ccccc4n(S(=O)(=O)c4ccccc4)c13)C(=O)N(Cc1ccc(C(F)(F)F)cc1)C2,20
C[C@H]1CN([C@@H](C)CO)S(=O)(=O)c2ccc(-c3ccc(F)cc3)cc2O[C@@H]1CN(C)C(=O)Nc1ccc(F)cc1,16[16.7 µM]
C[C@@H]1CN([C@@H](C)CO)C(=O)Cc2cc(NS(=O)(=O)c3ccccc3)ccc2O[C@@H]1CN(C)C(=O)Nc1ccc(C(F)(F)F)cc1,-1[16.7 µM]
CCCNC(=O)N1C[C@H](C)[C@@H](OC)CN(C)C(=O)c2ccc(NC(=O)CC)cc2OC[C@H]1C,13[16.7 µM]
CCCNC(=O)Nc1ccc2c(c1)C(=O)N(C)C[C@H](OC)[C@H](C)CN(Cc1ccc(-c3ccccn3)cc1)[C@@H](C)CO2,6[16.7 µM]
CO[C@H]1CC[C@H]2CCOc3c(C#N)cccc3C(=O)N(C)C[C@H](c3ccccc3)CC(=O)N(C)C[C@@H]1O2,-1[16.7 µM]
O=C(NCC[C@@H]1CC[C@@H](NC(=O)c2cccnc2)[C@H](CO)O1)Nc1ccc(C(F)(F)F)cc1,0[16.7 µM]
C=CCN=C1NC(c2cccc(Cl)c2)C(C(=O)OC)=C(C)N1Cc1ccc(C(F)(F)F)cc1 (configuration not stated),16
COCC(=O)N1C[C@@H](C)[C@H](OC)CN(C)C(=O)c2cc(NC(=O)c3ccc(-c4ccccc4)cc3)ccc2OC[C@H]1C,4[16.7 µM]
O=S1(=O)CCC(N(N=Cc2ccco2)c2ccccc2)C1 (configuration not stated),-27
C[C@@H]1CN([C@H](C)CO)C(=O)c2ccccc2-c2ccccc2CO[C@@H]1CN(C)Cc1cccc(C(=O)O)c1,-2[16.7 µM]
O=C([C@@H]1[C@@H](CO)[C@@H]2Cn3c(cccc3=O)[C@H]1N2)N1CCc2ccccc2C1,15[16.7 µM]
COc1ccc(COC[C@]23N=C4Sc5ccc([N+](=O)[O-])cc5C(=O)N4[C@H](c4ccccc4O2)[C@H]3CO[Si](C)(C)C(C)(C)C)cc1,6[16.7 µM]
C[C@@H]1CN([C@H](C)CO)C(=O)c2c(c3ccccc3n2C)-c2ccccc2CO[C@H]1CN(C)C(=O)[C@H](Cc1ccccc1)N(C)C,-9[16.7 µM]
CC1(C)OC(=O)C2=C(CC(CCc3ccccc3)OC2c2ccc(Cl)cc2)O1 (configuration not stated),-17
CC(C)c1cn(CC[C@@H]2CC[C@@H](NC(=O)C3CC3)[C@@H](CO)O2)nn1,7[16.7 µM]
O=C(C[C@@H]1CC[C@@H]2[C@H](COC[C@H](O)CN2S(=O)(=O)c2ccccc2)O1)NCc1ccc(-c2ccccc2)cc1,-19[16.7 µM]
COC(=O)C1=C(C)N(Cc2ccc(C(F)(F)F)cc2)C(=NCc2ccccc2)NC1c1ccccc1 (configuration not stated),-28
O=C(NCC1CCN(C(=O)C(=O)c2cc3ccccc3o2)CC1)c1ccncc1,?
COC(=O)C[C@@H]1CC[C@@H]2[C@H](COC[C@@H](O)CN2S(=O)(=O)c2cn(C)cn2)O1,-1[16.7 µM]
CN(C)CC(=O)Nc1ccc2c(c1)[C@@H]1C[C@H](CC(=O)NCc3ccc(-c4ccccc4)cc3)O[C@@H](CO)[C@@H]1O2,2[16.7 µM]
COc1ccccc1CCn1cnc(-c2cccc(Br)c2)c1C(C)C,-27
C[C@@H]1CN([C@@H](C)CO)C(=O)c2ccccc2-c2ccccc2CO[C@@H]1CN(C)C(=O)Nc1ccc2c(c1)OCO2,59*[16.7 µM]
COc1ccc(CN(C)C[C@H]2Oc3ccc(NC(=O)Cc4ccccc4)cc3CC(=O)N([C@H](C)CO)C[C@H]2C)cc1,-7[16.7 µM]
CO[C@H]1CN(C)C(=O)c2cc(NS(C)(=O)=O)ccc2OC[C@@H](C)N(Cc2cncnc2)C[C@H]1C,-14[16.7 µM]
C[C@H](CO)N1C[C@H](C)[C@H](CN(C)S(=O)(=O)c2cccc(C#N)c2)OCc2ccccc2-c2c(n(C)c3ccccc23)C1=O,57*[16.7 µM]
Cn1cnc(CCNC(=O)C[C@H]2CC[C@@H]3[C@H](COC[C@@H](O)CN3C(=O)Nc3ccc(C(F)(F)F)cc3)O2)c1,0[16.7 µM]
[O-][n+]1ccccc1C(O)CSc1ccccc1 (configuration not stated),-9
CN1C(=O)c2cc(NC(=O)c3ccc(C(F)(F)F)cc3)ccc2OC[C@H]2O[C@H](CC(=O)NC3Cc4ccccc4C3)CC[C@@H]21,30[16.7 µM]
O=C(O)[C@@H]1[C@@H](CO)[C@@H]2Cn3c(ccc(/C=C/c4ccccc4)c3=O)[C@@H]2N1C(=O)C1CCCC1,-55[16.7 µM]
C[C@@H]1CN([C@H](C)CO)C(=O)c2cc(NC(=O)Cc3ccccc3)ccc2O[C@@H](C)CCCCO[C@@H]1CN(C)Cc1ccc(C(F)(F)F)cc1,65*[16.7 µM]
CO[C@@H]1CN(C)C(=O)c2ccc(N)cc2OC[C@@H](C)NC[C@H]1C,4[16.7 µM]
CCC(=O)Nc1ccc2c(c1)C(=O)N(C)C[C@H](OC)[C@@H](C)CN(Cc1ccccc1)[C@@H](C)CO2,0[16.7 µM]
CN1[C@H](C(=O)NC2Cc3ccccc3C2)[C@@H](CO)[C@@H]2Cn3c(ccc(-c4cncnc4)c3=O)[C@@H]21,7[16.7 µM]
O=S(=O)(c1ccc(C(F)(F)F)cc1)N1CCCc2nc(-c3ccc(F)cc3)ccc21,6
CC(C)(C)S(=O)N1Cc2cc(C(=O)NCCCN3CCOCC3)nc(-c3cccc(-c4cccc(F)c4)c3)c2[C@@H]1CCO (some centres not stated),5[16.7 µM]
O=C(N[C@H]1CC[C@H](CCn2cc(-c3ccccc3F)nn2)O[C@@H]1CO)c1ccc2c(c1)OCO2,35[16.7 µM]
CO[C@@H]1CN(C)C(=O)c2cc(NC(=O)Cc3ccccc3)ccc2OC[C@H](C)N(C(C)=O)C[C@H]1C,-4[16.7 µM]
O=C(C1=C[C@@H](c2coc3ccccc3c2=O)C[C@@H](OCCCCO)O1)N1CCCCCCC1,20[16.7 µM]
COC(=O)CC#C[C@H](C)[C@@H](NS(C)(=O)=O)C(C)(C)COCc1ccccc1,-9
O=C(C[C@H]1C[C@H]2c3cc(NS(=O)(=O)c4ccc(F)cc4)ccc3O[C@H]2[C@@H](CO)O1)N1CCc2ccccc2C1,-48[16.7 µM]
C=CCCC1CN(CC=C)S(=O)(=O)c2c(F)cccc2O1 (configuration not stated),16
COC(=O)c1c(-c2ccc(OC)cc2)c2c(c3c4cc(OC)ccc4n(S(=O)(=O)c4ccc(F)cc4)c13)C(=O)N(C)C2,3
CC(C)NC(=O)Nc1ccc2c(c1)CC(=O)N([C@@H](C)CO)C[C@H](C)[C@H](CN(C)C)O2,-7[16.7 µM]
COCC(=O)Nc1ccc2c(c1)OC[C@H](C)N(C(=O)CC1CC1)C[C@@H](C)[C@H](OC)CN(C)C2=O,8[16.7 µM]
CCCc1nc2c(C)cc(Br)cn2c1Cc1cccc(Cl)c1,15
O=C(C[C@H]1CC[C@H](NC(=O)C2CCC2)[C@@H](CO)O1)NCC1CC1,-2[16.7 µM]
Cn1cnc(S(=O)(=O)N2C[C@H](O)COC[C@@H]3O[C@H](CC(=O)NCc4cccc(F)c4)CC[C@H]32)c1,-2[16.7 µM]
Cc1ccccc1-c1ccc2c(c1)O[C@@H](CN(C)C(=O)Nc1ccc(F)cc1)[C@@H](C)CN([C@@H](C)CO)S2(=O)=O,-33[16.7 µM]
Cc1[nH]nc2c1C(c1ccc(Br)cc1)NC2=O (configuration not stated),5
CO[C@@H]1CN(C)C(=O)c2cc(NC(=O)Nc3c(C)noc3C)ccc2OC[C@H](C)N(C)C[C@@H]1C,2[16.7 µM]
Cc1ccccc1S(=O)(=O)N1CCCc2nc(C)c(C)cc21,17
CC(C)C[C@H]1COc2ccc(Cl)cc2S(=O)(=O)N1,-35
C[C@H](NC(=O)C[C@@H]1C[C@H]2c3cc(NS(=O)(=O)c4ccc(F)cc4)ccc3O[C@H]2[C@H](CO)O1)c1ccccc1,-6[16.7 µM]
COc1ccccc1C(=O)Nc1ccc2c(c1)C(=O)N(C)[C@@H]1CC[C@@H](CC(=O)NCCc3ccncc3)O[C@@H]1CO2,10[16.7 µM]
CCS(=O)(=O)Nc1ccc2c(c1)C(=O)N(C)C[C@@H](OC)[C@H](C)CN(Cc1ccccn1)[C@H](C)CO2,-9[16.7 µM]

# High-throughput results from PubChem.
